rRNA inh HTS: inhibitors of bacterial rRNA selective over humanized ribosomes; E. coli WT GFP vs humanized-ribosome RFP mutants, fluorescence, 24 h; active compounds read low; DMSO median 0, no signal -100; GFP signal change (wild-type ribosome), % (test concentration not listed); hit rate 1.6% among 350,000;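 active means significant combined selectivity score with lowered wild-type GFP, culture density cut under 30%, mutant RFP and density less affected; inactive means any of these conditions unmet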; further: one replicate is shown; some compounds called inactive have numbers as strong as hits
AF4-AF9 inh: blocks AF4 peptide binding to human AF9; hit rate 0.47% among 350,000; P42568; AID 651704; AlphaScreen, biotin-AF4 peptide binding to FLAG-AF9; inhibition, % at 10 µM;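 active means every replicate reaching a set inhibition limit, whatever the replicate mean, cut at about 25% in these data; inconclusive means mean inhibition reaches that limit but some replicates miss it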;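 further: 0% = plate neutral control median and 100% = total signal loss; the record names both 10 and 1 µM as test concentration; the first replicate is given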
Target sequence (P42568 whole entry, looked up): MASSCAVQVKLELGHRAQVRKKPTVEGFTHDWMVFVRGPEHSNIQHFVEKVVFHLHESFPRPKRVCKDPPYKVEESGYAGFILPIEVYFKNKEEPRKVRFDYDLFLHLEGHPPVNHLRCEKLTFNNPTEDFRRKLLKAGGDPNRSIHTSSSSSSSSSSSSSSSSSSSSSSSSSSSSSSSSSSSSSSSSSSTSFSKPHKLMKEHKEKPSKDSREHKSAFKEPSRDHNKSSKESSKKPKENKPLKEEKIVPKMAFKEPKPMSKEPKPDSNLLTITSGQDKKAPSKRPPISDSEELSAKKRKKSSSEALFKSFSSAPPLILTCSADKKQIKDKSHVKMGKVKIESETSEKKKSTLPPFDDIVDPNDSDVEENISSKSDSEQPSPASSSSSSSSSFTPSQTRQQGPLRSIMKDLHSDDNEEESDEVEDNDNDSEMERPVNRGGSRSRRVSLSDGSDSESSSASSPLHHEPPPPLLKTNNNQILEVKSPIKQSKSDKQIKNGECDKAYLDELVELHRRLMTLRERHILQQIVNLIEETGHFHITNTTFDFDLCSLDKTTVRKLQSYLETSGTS
rRNA inh HTS OD600: also measured in rRNA inh HTS; calls as there; OD600 change, %; measured here: OD600 growth;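 optical density of the mix in the first replicate; 0 = DMSO median and -100 = no signal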
rRNA inh HTS RFP: second read-out of rRNA inh HTS, no call of its own (marks repeat the call); RFP signal change, %; measured here: RFP humanized mutant strains;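 first replicate; 0 = DMSO median and -100 = no signal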
Active calls of the source: *; ? = inconclusive; & = joins results of further samples. These rows are one share of the data; count on the stated rates, not on these rows.

Values run as follows: rRNA inh HTS	rRNA inh HTS OD600	rRNA inh HTS RFP	AF4-AF9 inh
COCCNC(=O)C[C@@H]1CC[C@H]2[C@@H](COC[C@H](O)CN2Cc2cccc(-c3ccncc3)c2)O1
→ 3	16	-0.2	-9.8
O=C(c1ccc(F)cc1)N1C[C@@H]2N[C@H](C1)C2c1ccc(/C=C/c2ccccc2)cc1 (some centres not stated)
→ -62&-59	-75&-77	-14&-16	?
COc1ccc(CN(C)C[C@@H]2Oc3ccc(NS(=O)(=O)c4ccc(F)cc4)cc3C(=O)N([C@@H](C)CO)C[C@@H]2C)cc1
→ 1	-3	-0.9	1.1
O=C(C[C@H]1CC[C@H]2[C@@H](COC[C@H](O)CN2S(=O)(=O)c2cccc(F)c2)O1)Nc1ccccc1
→ 2	5	-7.0	0.0
CCOC(=O)C1CCC(=O)N1Cc1c[nH]c2ccccc12 (configuration not stated)
→ 1	4	-3.4	-2.1
CC(C)C[C@H]1CN(CCCC[C@H]2CNC(=O)C(=O)N2CCc2ccccc2)C(=O)C(=O)N1CCc1ccccc1
→ 16	6	4.5	-6.4
C[C@@H]1CN([C@@H](C)CO)C(=O)Cc2cc(NC(=O)c3ccncc3)ccc2O[C@@H]1CN(C)S(=O)(=O)c1cn(C)cn1
→ 3	4	0.1	-16
COCC#Cc1ccc([C@H]2[C@@H](CO)N3CCCCN(C(=O)Nc4cc(F)ccc4F)C[C@H]23)cc1
→ -1	10	3.8	4.7
C[C@@H]1CN([C@@H](C)CO)C(=O)c2cc(NS(=O)(=O)c3ccc(F)cc3)ccc2O[C@H]1CN(C)Cc1ccc(C(=O)Nc2ccccc2N)cc1
→ -7	-16	-2.2	-3.0
COc1ccc(S(=O)(=O)N(C)C[C@H]2OCCCC[C@H](C)Oc3ccc(NC(=O)Cc4ccccc4)cc3C(=O)N([C@H](C)CO)C[C@@H]2C)cc1
→ -1	0	0.0	-1.2
COc1cccc(CN(C)C[C@@H]2OCc3ccccc3-c3c(n(C)c4ccccc34)C(=O)N([C@@H](C)CO)C[C@@H]2C)c1
→ -4	-4	3.7	-0.2
COc1cccc(-c2ccc3c(c2)N(Cc2ccc(F)cc2)C(=O)C(C)S3)c1 (configuration not stated)
→ 13	18	-0.7	3.7
CCCNC(=O)Nc1ccc2c(c1)OC[C@@H](C)N(S(C)(=O)=O)C[C@H](C)[C@H](OC)CN(C)C2=O
→ 1	4	0.4	-9.8
Cn1cnc(S(=O)(=O)N[C@@H]2C=C[C@H](CC(=O)N3CCN(c4ccccc4)CC3)O[C@H]2CO)c1
→ 3	5	0.5	-2.6
COc1ccc(NC(=O)Nc2ccc3c(c2)CC(=O)N([C@@H](C)CO)C[C@@H](C)[C@@H](CN(C)S(=O)(=O)c2ccccc2)O3)cc1
→ -2	14	1.4	3.5
Cn1cnc(S(=O)(=O)N2CCCCN3[C@H](C2)[C@H](c2ccc(-c4cccc(F)c4)cc2)[C@@H]3CO)c1
→ 1	4	1.9	-0.6
C[C@H](CO)N1C[C@H](C)[C@H](CN(C)CC2CCCC2)OCc2cn(nn2)CCCC1=O
→ 2	10	3.9	1.4
COc1ccc(C[C@@H]2CCn3cc(nn3)COC[C@@H](C(C)C)NC2=O)cc1
→ 1	2	-1.9	-0.8
CCN1[C@H](C(=O)OC)[C@@H](CO)[C@@H]2Cn3c(ccc(-c4cccc(C(=O)N(C)C)c4)c3=O)[C@@H]21
→ 2	6	-1.5	-2.9
CO[C@@H]1CN(C)C(=O)c2ccc(NC(=O)C3CC3)cc2OC[C@H](C)NC[C@H]1C
→ 2	6	-1.4	-2.5
C[C@H](CO)N1C[C@H](C)[C@H](CN(C)C)Oc2ccc(NS(=O)(=O)c3cccs3)cc2C1=O
→ 2	-3	-0.4	0.2
COC(=O)C[C@H]1CC[C@@H]2[C@H](COc3ccc(NC(=O)c4cnccn4)cc3C(=O)N2C)O1
→ 1	9	-3.2	-0.6
CCNC(=O)[C@H]1N[C@H]2c3ccc(-c4cccc(C(=O)N(C)C)c4)c(=O)n3C[C@H]2[C@@H]1CO
→ 1	3	4.2	-0.6
COCC(=O)N1CCCCN2[C@H](CO)[C@@H](c3ccc(-c4ccccc4)cc3)[C@@H]2C1
→ -2	-3	-1.4	-5.6
CO[C@H]1CC[C@@H]2CCN(C)C(=O)CCCN(C)C(=O)c3cc(C#N)ccc3OC[C@H]1O2
→ -4	-2	-1.4	-0.1
CCc1nc2c(OCCc3cccc(OC)c3)cccn2c1N(C=O)Cc1ccc(OC)cc1
→ -9	-8	3.1	2.8
CCCCN1C(=N)N([C@@H](CCC)CN2CCC[C@H]2CN2C(N)=NC[C@H]2C(C)C)C[C@H]1[C@H](C)CC
→ 14	10	5.8	0.2
CCC(=O)Nc1ccc2c(c1)C(=O)N(C)C[C@@H](OC)[C@@H](C)CN(C(=O)c1ccc(F)cc1)[C@@H](C)CO2
→ 2	4	-1.0	-1.3
O=C(NCc1cccs1)c1csc([C@@H]2C[C@H](O)[C@@H](CO)O2)n1
→ -2	6	-5.4	3.0
CO[C@H]1CN(C)C(=O)c2cccc(C#N)c2OC[C@@H]2O[C@@H](CC[C@H]2OC)CCN(C)C(=O)[C@@H]1C
→ 0	1	-2.7	-0.7

Record cards (already shown).
Entry for `CCN1[C@H](C(=O)OC)[C@@H](CO)[C@@H]2Cn3c(ccc(-c4cccc(C(=O)N(C)C)c4)c3=O)[C@@H]21` : rRNA inh HTS: 2; rRNA inh HTS OD600: 6; rRNA inh HTS RFP: -1.5; AF4-AF9 inh: -2.9
Entry for `Cn1cnc(S(=O)(=O)N2CCCCN3[C@H](C2)[C@H](c2ccc(-c4cccc(F)c4)cc2)[C@@H]3CO)c1` : rRNA inh HTS: 1; rRNA inh HTS OD600: 4; rRNA inh HTS RFP: 1.9; AF4-AF9 inh: -0.6

(further entries)
Values run as follows: rRNA inh HTS	rRNA inh HTS OD600	rRNA inh HTS RFP	AF4-AF9 inh
COc1ccccc1-c1ccc2n(c1=O)C[C@H]1[C@H](CO)[C@@H](C(=O)NCc3ccccc3Cl)N[C@@H]21
→ -5	3	-0.3	2.7
COc1ccc(-c2ccc([C@H]3[C@@H](C#N)N(C(=O)NC4CCCCC4)[C@@H]3CO)cc2)cc1
→ -6	-18	0.4	-1.1
C[C@@H]1CCCCO[C@H](CN(C)C(=O)Nc2ccc(F)cc2)[C@@H](C)CN([C@@H](C)CO)C(=O)c2cc(NC(=O)c3ccncc3)ccc2O1
→ 0	-1	0.4	2.7
C[C@@H]1CCCCO[C@@H](CN(C)C(=O)Nc2ccc(F)cc2)[C@@H](C)CN([C@@H](C)CO)C(=O)c2cc(N(C)C)ccc2O1
→ 1	6	-0.1	5.1
CO[C@H]1CN(C)C(=O)c2ccc(NC(=O)C3CC3)cc2OC[C@H](C)N(Cc2ccncc2)C[C@@H]1C
→ 0	-2	-0.2	-4.2
C/C=C/c1ccc(C2[C@H]3CNC[C@@H]2N3S(=O)(=O)Cc2ccccc2)cc1 (some centres not stated)
→ 5	18	-1.9	-1.3
CN(C)C(=O)C[C@H]1CC[C@H]2[C@@H](COc3ccc(NC(=O)c4cnccn4)cc3C(=O)N2C)O1
→ -1	-7	1.7	0.7
O=C(c1cccc(F)c1)N1CCCCN2[C@H](CO)[C@H](c3ccc(-c4cncnc4)cc3)[C@H]2C1
→ 1	4	-3.2	-7.0
CCCN(C)C[C@H]1Oc2cc(C#CC(C)C)ccc2S(=O)(=O)N([C@H](C)CO)C[C@H]1C
→ 9	-1	0.8	6.2
COc1ccc(-c2cnc3c(c2)C(=O)N([C@@H](C)CO)C[C@H](C)[C@H](CN(C)C(=O)Cc2ccccc2)O3)cc1
→ -5	-5	-3.2	-4.3
CC=Cc1ccc2n(c1=O)C[C@H]1[C@H](CO)[C@@H](C(=O)NCCC)[C@@H]2N1Cc1ccccc1OC (mixture of isomers)
→ 0	8	1.9	-2.1
COCC#Cc1ccc([C@H]2[C@@H](CO)N3C(=O)CN(C(=O)Nc4ccc(F)cc4)C[C@@H]23)cc1
→ 0	2	2.2	-2.8
O=C(NCC[C@@H]1CC[C@@H](NC(=O)C2CCCCC2)[C@H](CO)O1)c1cc(Cl)cc(Cl)c1
→ -1	-1	-5.5	-1.4
CO[C@H]1CN(C)C(=O)c2cc(NS(=O)(=O)c3ccc(C)cc3)ccc2OC[C@@H](C)N(Cc2nccs2)C[C@H]1C
→ -1	-11	6.0	-0.4
CN(C)Cc1ccccc1-c1cccc2nccn12
→ 8	4	5.0	1.7
C[C@H](CO)N1C[C@H](C)[C@H](CN(C)CC2CC2)Oc2ccc(NS(C)(=O)=O)cc2CC1=O
→ 3	7	-5.4	-4.0
COCC(=O)N1CC2(C1)[C@@H](c1ccc(-c3ccccc3)cc1)[C@H](CO)N2C(C)=O
→ -1	-5	0.7	-1.4
COC(=O)C[C@@H]1CC[C@@H]2[C@H](COc3ccc(NC(=O)Nc4cc(C)cc(C)c4)cc3C(=O)N2C)O1
→ -4	-17	4.1	4.8
c1ccc(COc2cccc(-c3cc4nc(NCc5cccs5)ccn4n3)c2)cc1
→ -28*	-22*	1.7*	1.8
COC(=O)N(C)C[C@@H]1OCc2ccccc2-c2ccccc2C(=O)N([C@@H](C)CO)C[C@H]1C
→ 0	10	-1.8	-0.4
CN(C)c1ccc2c(c1)[C@H]1C[C@H](CC(=O)NCc3ccc(Cl)cc3)O[C@@H](CO)[C@H]1O2
→ -3	0	1.5	5.1
C[C@@H]1CN([C@H](C)CO)C(=O)c2cccc(NC(=O)Nc3ccc(F)cc3)c2O[C@H]1CN(C)CC1CCCCC1
→ -13	-43	32	7.8
CCCCCCC=C1CCC(CN2CCCC2)C1=O (configuration not stated)
→ 12	24	3.1	0.3
COCC#Cc1cnc2c(c1)C(=O)N([C@H](C)CO)C[C@H](C)[C@@H](CN(C)C(=O)C1CCCCC1)O2
→ 2	8	-3.3	-2.3
CN1CCN(C(=O)C[C@H]2CC[C@H]3[C@H](COc4ccc(NC(=O)c5cccs5)cc4C(=O)N3C)O2)CC1
→ 0	3	-2.4	-4.4
Cc1noc(C)c1NC(=O)N(C)C[C@@H]1Oc2ccc(NS(=O)(=O)c3ccc(F)cc3)cc2CC(=O)N([C@H](C)CO)C[C@H]1C
→ 1	7	2.9	-2.2
C[C@H]1CN([C@@H](C)CO)C(=O)c2cccc(NC(=O)c3ccc(-c4nccs4)cc3)c2O[C@H]1CN(C)C(=O)Nc1cccc2ccccc12
→ -6	-14	0.9	-6.1
COCC(=O)N1[C@@H]2c3cccc(=O)n3C[C@@H]2[C@@H](CO)[C@@H]1C(=O)NCc1ccccc1Cl
→ 1	9	-2.8	-2.5
CCCNC(=O)N1C[C@H](C)[C@H](OC)CN(C)C(=O)c2ccc(NC(=O)C3CCC3)cc2OC[C@H]1C
→ -3	-6	-0.8	-1.4
C[C@H]1CCCCO[C@H](CN(C)C(=O)c2ccccc2)[C@@H](C)CN([C@@H](C)CO)C(=O)c2cc(NS(=O)(=O)c3cn(C)cn3)ccc2O1
→ -2	-5	-0.9	-1.9

Three structures already listed, sorted by length of the SMILES, rising:
Values run as follows: rRNA inh HTS	rRNA inh HTS OD600	rRNA inh HTS RFP	AF4-AF9 inh
c1ccc(COc2cccc(-c3cc4nc(NCc5cccs5)ccn4n3)c2)cc1
→ -28*	-22*	1.7*	1.8
COCC#Cc1cnc2c(c1)C(=O)N([C@H](C)CO)C[C@H](C)[C@@H](CN(C)C(=O)C1CCCCC1)O2
→ 2	8	-3.3	-2.3
C[C@@H]1CCCCO[C@@H](CN(C)C(=O)Nc2ccc(F)cc2)[C@@H](C)CN([C@@H](C)CO)C(=O)c2cc(N(C)C)ccc2O1
→ 1	6	-0.1	5.1

Continuation.
Values run as follows: rRNA inh HTS	rRNA inh HTS OD600	rRNA inh HTS RFP	AF4-AF9 inh
C[C@H]1CN([C@@H](C)CO)C(=O)c2cccc(NC(=O)Nc3ccc(F)cc3)c2O[C@@H]1CN(C)S(=O)(=O)c1cccs1
→ -1	0	-3.6	1.9
O=C(NCC[C@@H]1CC[C@H](NS(=O)(=O)c2ccc(F)cc2)[C@@H](CO)O1)Nc1ccc(F)cc1
→ -7	-15	2.9	15
C[C@@H]1CCCCO[C@@H](CN(C)CC2CCCCC2)[C@@H](C)CN([C@@H](C)CO)C(=O)c2cc(NC(=O)C3CCCCC3)ccc2O1
→ 3	-6	4.7	12
CN(Cc1ccccc1)C(=O)c1cccc(NC(=O)Cc2ccc(NC(=O)C3CCN(C(=O)C4CCCC4)CC3)cc2)c1
→ 2	3	0.0	0.5
C[C@@H]1CN([C@H](C)CO)C(=O)c2cc(NC(=O)Cc3ccccc3)ccc2O[C@@H](C)CCCCO[C@@H]1CN(C)Cc1ccc(Cl)c(Cl)c1
→ 4	2	0.1	-2.0
CC1(C(=O)Nc2ccc3c(c2)OCO3)CCN1Cc1csc2ccccc12 (configuration not stated)
→ -13	-37	-5.7	-13
CO[C@@H]1CN(C)C(=O)c2cc(NS(=O)(=O)CC(F)(F)F)ccc2OC[C@H](C)N(C(=O)NC(C)C)C[C@H]1C
→ 1	4	-0.8	-4.2
O=C(OCCOc1ccccc1F)c1cc(S(=O)(=O)N2CCOCC2)ccc1F
→ 0	-1	-1.4	-0.9
O=C(NC1CCCC1)N1CC(=O)N2[C@H](CO)[C@H](c3ccc(-c4cccnc4)cc3)[C@H]2C1
→ -7	-6	-1.7	-0.5
FC(F)(F)c1ccc(C2Nc3cccc4cccc(c34)N2)cc1
→ -3	14	-10	5.3
